Assay outcomes (PubChem)
Yeast UUG start = modulators of start codon recognition fidelity in yeast; S. cerevisiae UUG-firefly luciferase reporter, luminescence/redox ratio; activity score, % at 18.7 µM; 350,000 compounds, 0.13% hits; AID 602363;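 active = replicate mean at a twofold rise or more, about +100% in these data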;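 note: firefly luciferase made from a UUG start codon reports start codon fidelity; reporter light over untreated wells divided by growth signal over untreated wells; some hits fall short of that in this replicate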
HIV Env fusion = blocks HIV Env-driven cell-cell fusion; AID 651610; 360,000 compounds, 1.1% hits; inhibition, % at 12.3 µM; HeLa-JRFL Env/CEM21 cell fusion, luciferase;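 active = mean replicate inhibition score of at least 50 and every replicate individually at or above 50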;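 note: 0% = plate neutral controls and 100% = maraviroc near 300 nM; one replicate is shown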
An asterisk follows results filed as active; [ ] = dose if it differs, or a comment. An excerpt. The share of hits here may be higher or lower than overall.

SMILES	Yeast UUG start	HIV Env fusion
C[C@H](CO)N1C[C@H](C)[C@H](CN(C)Cc2ccccc2)Oc2ncc(-c3cncnc3)cc2C1=O	-17	13[16.7 µM]
C[C@@H]1CN([C@@H](C)CO)C(=O)c2cc(C#CCN(C)C)cnc2O[C@@H]1CN(C)C(=O)c1cccc(F)c1	-2	4[16.7 µM]
O=C(C[C@@H]1C[C@@H]2c3cc(NC(=O)NC4CCCC4)ccc3O[C@@H]2[C@H](CO)O1)NCC1CC1	5	-7[16.7 µM]
C[C@H]1CCCCO[C@H](CN(C)C(=O)C2CCCCC2)[C@@H](C)CN([C@@H](C)CO)C(=O)c2cc(NC(=O)CCC(F)(F)F)ccc2O1	26	-2[16.7 µM]
COc1ccc(NC(=O)Nc2ccc3c(c2)C(=O)N([C@@H](C)CO)C[C@H](C)[C@H](CN(C)Cc2ccc(Cl)c(Cl)c2)OCCCC[C@@H](C)O3)cc1	9	33[16.7 µM]
CNC[C@@H]1OCCCC[C@@H](C)Oc2ccc(NC(=O)Nc3ccc4c(c3)OCO4)cc2C(=O)N([C@@H](C)CO)C[C@H]1C	23	-8[16.7 µM]
C[C@@H]1CN([C@@H](C)CO)C(=O)c2cccc(NS(=O)(=O)c3ccc(F)cc3)c2O[C@@H]1CN(C)Cc1ccc(C(F)(F)F)cc1	-1	58*[16.7 µM]
CCC(=O)Nc1ccc2c(c1)OC[C@@H](C)N(CCC(F)(F)F)C[C@@H](C)[C@@H](OC)CN(C)C2=O	18	-3[16.7 µM]
C[C@@H]1CN([C@H](C)CO)C(=O)Cc2cc(NC(=O)Cc3cn(C)c4ccccc34)ccc2O[C@H]1CN(C)Cc1ccc(C(=O)O)cc1	-11	-14[16.7 µM]
CCC(=O)N(C)C[C@@H]1Oc2ncc(-c3ccc(F)cc3)cc2C(=O)N([C@H](C)CO)C[C@H]1C	-8	-6[16.7 µM]
C[C@@H]1CN([C@@H](C)CO)C(=O)c2cc(-c3ccccc3)cnc2O[C@@H]1CN(C)Cc1cccnc1	-2	18[16.7 µM]
C[C@H]1CN([C@@H](C)CO)C(=O)Cc2cc(NC(=O)Nc3ccc(F)cc3)ccc2O[C@H]1CN(C)S(=O)(=O)c1ccc(F)cc1	1	-36[16.7 µM]
Cc1noc(C)c1S(=O)(=O)N(C)C[C@@H]1OCCCC[C@@H](C)Oc2ccc(NC(=O)Nc3cccc4ccccc34)cc2C(=O)N([C@H](C)CO)C[C@@H]1C	-12	-9[16.7 µM]
C[C@@H]1CCCCO[C@@H](CN(C)C(=O)Nc2cccc3ccccc23)[C@@H](C)CN([C@H](C)CO)C(=O)c2cc(NS(=O)(=O)c3ccc(F)cc3)ccc2O1	-5	10[16.7 µM]
C[C@@H](NC(=O)C[C@@H]1C[C@H]2c3cc(NC(=O)NC4CCCC4)ccc3O[C@H]2[C@@H](CO)O1)c1ccccc1	-6	9[16.7 µM]
O=C(O)C[C@H]1C=C[C@H](NC(=O)Nc2ccccc2)[C@@H](CO)O1	-18	3[16.7 µM]
O=C(NCC[C@H]1CC[C@@H](NS(=O)(=O)c2cccc(F)c2)[C@@H](CO)O1)C1CCC1	16	-1[16.7 µM]
COc1ccc(NC(=O)Nc2ccc3c(c2)CC(=O)N([C@H](C)CO)C[C@@H](C)[C@H](CN(C)Cc2ccc(C(F)(F)F)cc2)O3)cc1	6	8[16.7 µM]
Cc1noc(C)c1S(=O)(=O)Nc1ccc2c(c1)C(=O)N([C@@H](C)CO)C[C@H](C)[C@H](CN(C)S(=O)(=O)c1ccccc1)OCCCC[C@H](C)O2	-8	-6[16.7 µM]
Cc1ccccc1-c1cnc2c(c1)C(=O)N([C@H](C)CO)C[C@@H](C)[C@H](CN(C)C(=O)c1ccc(F)cc1)O2	1	-2[16.7 µM]
C[C@H](CO)N1C[C@H](C)[C@@H](CN(C)CC2CCCCC2)Oc2c(NS(C)(=O)=O)cccc2C1=O	-2	14[16.7 µM]
C[C@@H]1CN([C@H](C)CO)C(=O)c2cc(NC(=O)Nc3ccccc3)ccc2O[C@@H](C)CCCCO[C@H]1CN(C)Cc1ccccc1	24	-17[16.7 µM]
C[C@@H]1CN([C@@H](C)CO)C(=O)Cc2cc(NC(=O)Cc3ccccc3)ccc2O[C@H]1CN(C)C(=O)Nc1ccc2c(c1)OCO2	2	-3[16.7 µM]
C[C@H]1CN([C@@H](C)CO)C(=O)Cc2cc(NC(=O)Nc3ccc(F)cc3)ccc2O[C@H]1CN(C)C(=O)Nc1ccc(C(F)(F)F)cc1	-3	3[16.7 µM]
C[C@H]1CN([C@@H](C)CO)C(=O)c2cc(NS(=O)(=O)c3cn(C)cn3)ccc2O[C@H]1CN(C)Cc1ccccc1	-4	-1[16.7 µM]
O=C(C[C@H]1CC[C@@H]2NC[C@H](O)COC[C@H]2O1)NCc1ccc(Oc2ccccc2)cc1	-16	6[16.7 µM]
C[C@@H]1CN([C@H](C)CO)C(=O)c2cc(N(C)C)ccc2O[C@@H](C)CCCCO[C@@H]1CN(C)Cc1ccncc1	13	-8[16.7 µM]
C[C@H](CO)N1C[C@H](C)[C@H](CN(C)Cc2ccncc2)Oc2c(NC(=O)Nc3cccc4ccccc34)cccc2C1=O	36	2[16.7 µM]
C[C@H]1CN([C@@H](C)CO)C(=O)c2cc(NC(=O)C3CCCCC3)ccc2O[C@H]1CN(C)Cc1ccccc1	-3	-10[16.7 µM]
C[C@H](CO)N1C[C@H](C)[C@@H](CN(C)S(C)(=O)=O)Oc2ccc(NC(=O)Cc3ccccc3)cc2CC1=O	0	3[16.7 µM]
CC(C)CC#Cc1ccc2c(c1)O[C@H](CN(C)S(C)(=O)=O)[C@H](C)CN([C@H](C)CO)S2(=O)=O	3	-2[16.7 µM]
C[C@H](CO)N1C[C@H](C)[C@H](CN(C)CC2CC2)OCCCC[C@H](C)Oc2ccc(NC(=O)Nc3cccc4ccccc34)cc2C1=O	60	62*[16.7 µM]
C[C@@H]1CCCCO[C@@H](CN(C)C(=O)C2CCCCC2)[C@H](C)CN([C@H](C)CO)C(=O)c2cc(NC(=O)Nc3cccc4ccccc34)ccc2O1	1	-2[16.7 µM]
COc1ccccc1-c1cnc2c(c1)C(=O)N([C@H](C)CO)C[C@@H](C)[C@H](CN(C)Cc1cccnc1)O2	-1	11[16.7 µM]
C[C@@H]1CCCCO[C@H](CN(C)C(=O)NC2CCCCC2)[C@@H](C)CN([C@H](C)CO)C(=O)c2cc(NC(=O)Cc3ccccc3)ccc2O1	-4	11[16.7 µM]
CC(C)NC(=O)Nc1ccc2c(c1)C(=O)N([C@@H](C)CO)C[C@@H](C)[C@H](CN(C)Cc1ccc3c(c1)OCO3)OCCCC[C@@H](C)O2	1	22[16.7 µM]
COc1ccc(NC(=O)N(C)C[C@H]2OCCCC[C@H](C)Oc3ccc(NC(=O)NC4CCCCC4)cc3C(=O)N([C@@H](C)CO)C[C@H]2C)cc1	0	-22[16.7 µM]
C/C=C/c1ccc2c(c1)O[C@H](CN(C)C(=O)NCCC)[C@H](C)CN([C@H](C)CO)S2(=O)=O	2	13[16.7 µM]
C[C@H]1CN([C@@H](C)CO)C(=O)Cc2cc(NC(=O)Cn3cnnn3)ccc2O[C@H]1CN(C)C(=O)Nc1cccc2ccccc12	3	14[16.7 µM]
CCC(=O)Nc1ccc2c(c1)OC[C@H](C)N(C(=O)CN(C)C)C[C@H](C)[C@@H](OC)CN(C)C2=O	-7	8[16.7 µM]

Reprinted at random: three compounds from above.
SMILES	Yeast UUG start	HIV Env fusion
C[C@H]1CN([C@@H](C)CO)C(=O)Cc2cc(NC(=O)Cn3cnnn3)ccc2O[C@H]1CN(C)C(=O)Nc1cccc2ccccc12	3	14[16.7 µM]
CC(C)CC#Cc1ccc2c(c1)O[C@H](CN(C)S(C)(=O)=O)[C@H](C)CN([C@H](C)CO)S2(=O)=O	3	-2[16.7 µM]
C/C=C/c1ccc2c(c1)O[C@H](CN(C)C(=O)NCCC)[C@H](C)CN([C@H](C)CO)S2(=O)=O	2	13[16.7 µM]

Single entries from the results shown:
C[C@@H]1CCCCO[C@@H](CN(C)C(=O)C2CCCCC2)[C@H](C)CN([C@H](C)CO)C(=O)c2cc(NC(=O)Nc3cccc4ccccc34)ccc2O1 @ Yeast UUG start = 1
COc1ccc(NC(=O)N(C)C[C@H]2OCCCC[C@H](C)Oc3ccc(NC(=O)NC4CCCCC4)cc3C(=O)N([C@@H](C)CO)C[C@H]2C)cc1 @ Yeast UUG start = 0

(more compounds)
SMILES	Yeast UUG start	HIV Env fusion
COCC(=O)Nc1ccc2c(c1)[C@H]1C[C@H](CC(=O)NCc3ccccn3)O[C@@H](CO)[C@H]1O2	-19	-4[16.7 µM]
COc1cccc(S(=O)(=O)N[C@@H]2C=C[C@H](CC(=O)NCc3ccncc3)O[C@@H]2CO)c1	-31	-4[16.7 µM]
C[C@H]1CN([C@@H](C)CO)C(=O)c2cccc(NS(=O)(=O)c3cccs3)c2O[C@@H]1CN(C)C(=O)Nc1ccc(F)cc1	20	10[16.7 µM]
COC(=O)C[C@H]1CC[C@@H]2[C@H](COC[C@@H](O)CN2C(=O)Nc2cccc(F)c2)O1	13	8[16.7 µM]
C[C@H]1CN([C@@H](C)CO)C(=O)c2cccc(NC(=O)c3cnccn3)c2O[C@H]1CN(C)Cc1ccc(Cl)c(Cl)c1	6	5[16.7 µM]
C[C@H]1CN([C@@H](C)CO)C(=O)Cc2cc(NS(=O)(=O)c3ccc(F)cc3)ccc2O[C@@H]1CN(C)C(=O)Nc1ccc(C(F)(F)F)cc1	0	5[16.7 µM]
C[C@@H]1CN([C@@H](C)CO)C(=O)c2cccc(NS(=O)(=O)c3ccc(Cl)cc3)c2O[C@H]1CN(C)S(=O)(=O)c1cccs1	3	-7[16.7 µM]
COc1ccc(-c2cnc3c(c2)C(=O)N([C@H](C)CO)C[C@@H](C)[C@H](CN(C)C(=O)Cc2cccnc2)O3)cc1	-6	-7[16.7 µM]
C[C@@H]1CCCCO[C@@H](CN(C)S(=O)(=O)c2ccc(F)cc2)[C@H](C)CN([C@@H](C)CO)C(=O)c2cc(NS(=O)(=O)c3ccc(F)cc3)ccc2O1	3	-92[16.7 µM]
COc1ccc(S(=O)(=O)Nc2cccc3c2O[C@H](CN(C)Cc2ccc4c(c2)OCO4)[C@H](C)CN([C@@H](C)CO)C3=O)cc1	3	5[16.7 µM]

The list goes on, starting with the last 2 of the part before.
SMILES	Yeast UUG start	HIV Env fusion
C[C@@H]1CCCCO[C@@H](CN(C)S(=O)(=O)c2ccc(F)cc2)[C@H](C)CN([C@@H](C)CO)C(=O)c2cc(NS(=O)(=O)c3ccc(F)cc3)ccc2O1	3	-92[16.7 µM]
COc1ccc(S(=O)(=O)Nc2cccc3c2O[C@H](CN(C)Cc2ccc4c(c2)OCO4)[C@H](C)CN([C@@H](C)CO)C3=O)cc1	3	5[16.7 µM]
C[C@H]1CN([C@@H](C)CO)C(=O)c2cc(-c3ccc(F)cc3)cnc2O[C@@H]1CN(C)Cc1cncnc1	2	-76[16.7 µM]
C[C@@H]1CCCCO[C@H](CN(C)C(=O)c2ccccc2)[C@H](C)CN([C@@H](C)CO)C(=O)c2cc(NS(=O)(=O)c3ccccc3)ccc2O1	3	-27[16.7 µM]
CC(C)C(=O)Nc1ccc2c(c1)C(=O)N(C)[C@@H]1CC[C@@H](CC(=O)NCc3ccccc3)O[C@@H]1CO2	-12	-7[16.7 µM]
C[C@H]1CN([C@@H](C)CO)C(=O)Cc2cc(NS(=O)(=O)c3cn(C)cn3)ccc2O[C@H]1CN(C)Cc1ccc2c(c1)OCO2	-4	-28[16.7 µM]
C[C@@H]1CN([C@H](C)CO)S(=O)(=O)c2ccc(-c3ccncc3)cc2O[C@@H]1CN(C)S(C)(=O)=O	-8	12[16.7 µM]
C[C@H]1CN([C@@H](C)CO)C(=O)c2cc(C#Cc3cccnc3)cnc2O[C@@H]1CN(C)Cc1ccncc1	-15	5[16.7 µM]
C[C@H](CO)N1C[C@H](C)[C@@H](CN(C)C(=O)CC2CC2)Oc2cc(C#CC3CC3)ccc2S1(=O)=O	22	-2[16.7 µM]
C[C@H](CO)N1C[C@H](C)[C@@H](CN(C)C(=O)Nc2cccc3ccccc23)Oc2ccc(NS(=O)(=O)c3cn(C)cn3)cc2CC1=O	-13	47[16.7 µM]
Cc1noc(C)c1S(=O)(=O)Nc1ccc2c(c1)C(=O)N([C@@H](C)CO)C[C@H](C)[C@@H](CN(C)C(=O)NC(C)C)O2	8	22[16.7 µM]
O=C(C[C@@H]1C=C[C@@H](NC(=O)Nc2ccc(C(F)(F)F)cc2)[C@@H](CO)O1)NCc1ccccn1	12	21[16.7 µM]
C[C@@H]1CN([C@@H](C)CO)S(=O)(=O)c2ccc(-c3cccnc3)cc2O[C@@H]1CN(C)Cc1ccccn1	-25	-30[16.7 µM]
C[C@@H]1CN([C@H](C)CO)C(=O)c2cc(NS(C)(=O)=O)ccc2O[C@@H](C)CCCCO[C@@H]1CN(C)S(C)(=O)=O	1	2[16.7 µM]
COc1ccc(CN(C)C[C@H]2Oc3ccc(NC(=O)Nc4ccc5c(c4)OCO5)cc3CC(=O)N([C@@H](C)CO)C[C@H]2C)cc1	1	1[16.7 µM]
Cc1noc(C)c1NC(=O)Nc1ccc2c(c1)C(=O)N([C@H](C)CO)C[C@@H](C)[C@@H](CN(C)Cc1ccc3c(c1)OCO3)OCCCC[C@@H](C)O2	4	-9[16.7 µM]
Cc1noc(C)c1NC(=O)N[C@@H]1CC[C@@H](CC(=O)Nc2ccc(-c3ccccc3)cc2)O[C@@H]1CO	24	10[16.7 µM]
C[C@@H]1CN([C@@H](C)CO)C(=O)c2cc(NC(=O)c3ccccc3)ccc2O[C@@H](C)CCCCO[C@@H]1CN(C)C(=O)C1CCCCC1	36	-2[16.7 µM]
C[C@H](CO)N1C[C@H](C)[C@@H](CN(C)C(=O)Nc2ccc(C(F)(F)F)cc2)OCCCC[C@H](C)Oc2ccc(NC(=O)Nc3ccc(F)cc3)cc2C1=O	-10	20[16.7 µM]
